# High-throughput results deposited in PubChem BioAssay by National Center for Advancing Translational Sciences (NCATS).
# Menin MLL FP FL: qHTS Assay for Inhibitors Targeting the Menin-MLL Interaction in MLL Related Leukemias: Competition With Fluorescein Labeled MLL-derived Peptide; Fluorescence polarization, fluorescein-MLL peptide displacement from menin; FP activity change, % at 61.4 µM; 290,000 tested, under 10 active; inconclusive = falling polarisation curve, or a change in total fluorescence; inactive = total fluorescence flat and polarisation flat or rising; no compound was filed as active; the % refers to the polarisation; negative = inhibition;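 note: % of control where 0% means no effect; inhibitors lower the polarisation; unlabelled MLL peptide was the positive control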
# gsp agonist: qHTS for Agonist of gsp, the Etiologic Mutation Responsible for Fibrous Dysplasia/McCune-Albright Syndrome: qHTS; Potency, µM (titrated, usually from 76.9 µM), inactives show at the highest dose activation (cAMP increase), most hits filed as activators; AID 624287, 2012; gsp mutant cells, cAMP HTRF, 30 min; control for the full effect not named in the record; 0.13% of 340,000 active; active = well fitted activation curve with a large enough effect; inconclusive = small, poorly fitted or top-dose-only effect, or another doubt; inactive = no such curve, though single readings can be large or run the other way; cell line not stated here;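 note: phosphodiesterase inhibitor Ro 20-1724 added with compounds to block cAMP breakdown; potency is the fitted concentration of half-maximal effect; nearly all actives have a fitted effect of over 60% in size; about a fifth of the inactives were tested at one dose only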
#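 Cells in DMEM/10% FBS with G418 were pretreated with compounds in DMSO plus […] (300 uM stock) for 30 min at 37C. cAMP was measured by HTRF (cAMP-d2 plus anti-cAMP antibody-K) after 30 min at room temperature.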
# Sfp inh: qHTS Assay for Inhibitors of Bacillus subtilis Sfp phosphopantetheinyl transferase (PPTase); 4'-phosphopantetheinyl transferase ffp (Bacillus subtilis), Q9F4F7; Biochemical Sfp PPTase activity, qHTS; Potency, µM, for inactives: max response, negative = inhibition, most hits filed as inhibitors; 3.5% of 310,000 active; AID 1490, 2009; active = well fitted inhibition curve with a large enough effect; inconclusive = small, poorly fitted or top-dose-only effect, or another doubt; inactive = no such curve, though single readings can be large or run the other way;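 note: the enzyme is Sfp with the accession as filed and its product quenches rhodamine fluorescence; potency is the fitted concentration of half-maximal effect; 0% = enzyme reaction without inhibitor and -100% = no enzyme wells; top concentration of the series not given in the record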
#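 Step 1, compound plus 15 nM Sfp-PPTase, 15 min, room temperature. Step 2, add rhodamine-CoA (5 uM) and BHQ-2-YbbR (12.5 uM). Step 3, read 525/598 nm fluorescence at 0 and 30 min.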
# ClpP mod: qHTS Assay for Activators of ClpP. purified B. subtilis ClpP, FRET peptide cleavage, 20 min. ATP-dependent Clp protease proteolytic subunit (Bacillus subtilis (strain 168)), P80244. Potency, µM (series often up to 57.5 µM), without a hit: at the highest dose activity change, negative = active. AID 651965, 2013. 1.9% of 340,000 active; active = well fitted falling curve with a large enough effect; inconclusive = small, poorly fitted or top-dose-only effect; inactive = no such curve, though single readings can be large or run the other way; note: potency is the fitted concentration of half-maximal effect; the source files actives as falling curves though it sought activators and does not explain the sign; nearly all actives have a fitted effect of over 65% in size; many hits overshoot -100%
# Target sequence (P80244 whole entry, looked up): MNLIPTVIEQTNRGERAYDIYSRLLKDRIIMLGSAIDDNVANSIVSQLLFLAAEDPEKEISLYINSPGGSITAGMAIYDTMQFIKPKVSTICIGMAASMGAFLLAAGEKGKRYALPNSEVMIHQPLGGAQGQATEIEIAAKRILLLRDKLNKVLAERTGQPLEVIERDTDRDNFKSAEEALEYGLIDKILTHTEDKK
#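 Buffer: 100 mM Tris/HCl pH8, 100 mM KCl, 0.05% low protease BSA, 2.5% glycerol, 0.01% Tween-20. ClpP 10 microg/mL final; 20 min RT; delta FRET normalized to ADEP and DMSO controls.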
# TRPV1 PAM: HTS Assay for Compounds that Act as Potentiators of the Vanilloid Receptor 1 | Transient receptor potential cation channel subfamily V member 1 (Homo sapiens), Q8NER1 | TRPV1-expressing cells, Fluo-8 calcium influx, capsaicin EC20 potentiation; host cell line not named in the record; control for the full effect not named in the record | potentiation, % at 8.33 µM | 0.02% of 320,000 active; active means potentiation above 80%; inconclusive means 30% to 80%; inactive means below 30%; note: 0% is about no effect
#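 TRPV1-expressing cells were cultured overnight at 35.5C and loaded with Fluo-8 calcium dye for 40 to 90 min at room temperature. After a 10 s baseline, compound was added and calcium influx was read kinetically for 3 min (ex 480/em 520 nm).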
# TRPML1 blocker: qHTS for Inhibitors of the Human Mucolipin Transient Receptor Potential 1 (TRPML1); Mucolipin-1 (Homo sapiens), Q9GZU1; TRPML1-inducible cells, Ca2+ dye fluorescence, FDSS; active compounds read low; inhibition of EC80 agonist-evoked calcium signal; activity change, negative = inhibition, % (concentration not given with the values); 0.02% of 390,000 active; AID 624415, 2012; in the data active means activity change below about -50%; inconclusive means about -30% to -50%; inactive means above about -30%;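 note: stimulus is agonist 54-4 at its EC80 concentration; % is set by controls: 0 for no effect and ±100 for the full control effect; the text of the record puts the active cut at -80%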
# Target sequence (Q9GZU1 whole entry, looked up): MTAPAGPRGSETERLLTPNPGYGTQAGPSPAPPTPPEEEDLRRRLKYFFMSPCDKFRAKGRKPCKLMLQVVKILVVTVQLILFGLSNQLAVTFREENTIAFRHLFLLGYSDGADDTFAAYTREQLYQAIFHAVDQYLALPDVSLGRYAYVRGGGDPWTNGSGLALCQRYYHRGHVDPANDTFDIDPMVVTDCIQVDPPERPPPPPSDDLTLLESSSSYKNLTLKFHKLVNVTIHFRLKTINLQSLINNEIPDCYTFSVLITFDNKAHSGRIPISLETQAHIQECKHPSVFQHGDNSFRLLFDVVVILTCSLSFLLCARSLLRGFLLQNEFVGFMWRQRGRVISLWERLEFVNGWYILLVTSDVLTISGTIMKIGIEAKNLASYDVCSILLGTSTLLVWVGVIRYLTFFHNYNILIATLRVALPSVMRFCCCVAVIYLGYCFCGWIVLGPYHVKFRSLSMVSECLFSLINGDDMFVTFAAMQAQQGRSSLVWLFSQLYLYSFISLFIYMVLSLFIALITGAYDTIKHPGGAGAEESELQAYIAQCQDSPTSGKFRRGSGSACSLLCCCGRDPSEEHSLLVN
#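 Tet-induced TRPML1-DL cells loaded with Ca8 no-wash calcium dye were read kinetically on FDSS. Compound addition was followed by EC80 agonist 54-4 (4 uM final); inhibition was read over 110 s.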
# gsp antagonist: qHTS for Antagonists of gsp, the Etiologic Mutation Responsible for Fibrous Dysplasia/McCune-Albright Syndrome: qHTS | gsp-mutant cells, cAMP HTRF, 30 min; control for the full effect not named in the record | Potency, µM (titrated, usually from 76.9 µM), for the others: at the highest dose activity change, negative = inhibition, hits mostly inhibitors | 0.4% of 340,000 active | AID 624288, 2012; active = falling curve of any shape with a large fitted effect; inconclusive = falling curve, mostly with a smaller effect; inactive = flat or rising curve; cell line not stated here;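 note: intracellular cAMP measured with PDE inhibitor Ro 20-1724 present during compound exposure; potency is the fitted concentration of half-maximal effect; % is set by controls: 0 for no effect and ±100 for the full control effect; nearly all actives have a fitted effect of over 65% in size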
#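 G418-selected cells were plated in DMEM/10% FBS for 16-24 h at 37C, then treated with compounds plus the PDE inhibitor […] (300 uM solution added) for 30 min at 37C. Intracellular cAMP was measured by HTRF after 30 min lysis at room temperature.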
# * hit, by the source's call; ? = inconclusive; . = not tested or not shown; [ ] = another dose, or the depositor's remark.
canonical_smiles,Menin MLL FP FL,gsp agonist,Sfp inh,ClpP mod,TRPV1 PAM,TRPML1 blocker,gsp antagonist
C=CCNC(=O)c1cc(-c2ccccc2O)on1,-1.6,-65%[inhibitor],3%,1.0%,-6,-5,4%
Cc1cccc(N(CC(N)=O)S(C)(=O)=O)c1C,0.0,-12%,-6%,0.7%,?,8,0%
CCN(c1ccccc1)S(=O)(=O)c1ccc(NC(=S)NC(=O)c2cccs2)cc1,4.0,-6%,?,-1.7%,-13,-4,-25%
COc1ccc(NC(=O)c2ccc(S(=O)(=O)C(F)F)cc2)c(OC)c1,-0.7,-16%,6%,-1.1%,-19,16,1%
Cc1ccc(NC(=O)Nc2cccnc2)cc1Cl,2.7,-38%[inhibitor],6%,-2.0%,-9,-27,3%
Cc1ccc(C(=O)NCC(=O)OCC(=O)Nc2ccc(Cl)cn2)cc1,.,?,.,-0.1%,4,-9,8%
Cc1ccc(OCC(=O)Nc2ccc(N3CCN(C(=O)c4ccco4)CC3)cc2)c(C)c1,-5.3,1%[15.4 µM],-10%,-3.5%,-1,11,-18%
CCOc1nc(NCCc2ccc(OC)c(OC)c2)nc(N2CCN(c3ccc(OC)cc3)CC2)n1,1.3,-7%,18%,1.0%,-2,11,-6%
Cc1ccc(-c2c3c(=O)n(C)c(=O)n(C)c3cn2Cc2ccccn2)cc1,3.8,?,-14%,-6.4%,25,8,-7%
COCCCNC1CS(=O)(=O)CC1O (stereo not drawn),1.2,10%,23%,0.1%,-6,2,4%
CCOc1ccc(CCNC(=O)c2cccc(S(=O)(=O)N3CC(C)OC(C)C3)c2)cc1OCC (stereo not drawn),.,0%[15.4 µM],.,-1.3%,-4,-2,-7%
Cc1ccc(-n2c(Cc3ccccc3)n[nH]c2=S)cc1,1.0,20%,-16%,1.0%,23,1,-14%
Cc1ccc(C2OC(=O)C=C2c2ccccc2)cc1 (stereo not drawn),.,7%,.,1.1%,?,-4,-6%
CCn1cc(C(=O)N2CCN(c3ccccc3F)CC2)c(=O)c2ccc(C)nc21,-6.5,0%,12%,0.6%,5,-2,8%
Cc1cc(C)c(NC(=O)c2c[nH]c(=S)n2-c2ccc(F)cc2)c(C)c1,-0.4,?,-11%,0.4%,4,8,3%
CCOC(=O)c1ccc(Nc2c(OCC)c(=O)c2=O)cc1,8.7,8%[15.4 µM],9%,-1.4%,-39,2,-9%

# Next section; it opens with the two that closed the last part.
canonical_smiles,Menin MLL FP FL,gsp agonist,Sfp inh,ClpP mod,TRPV1 PAM,TRPML1 blocker,gsp antagonist
Cc1cc(C)c(NC(=O)c2c[nH]c(=S)n2-c2ccc(F)cc2)c(C)c1,-0.4,?,-11%,0.4%,4,8,3%
CCOC(=O)c1ccc(Nc2c(OCC)c(=O)c2=O)cc1,8.7,8%[15.4 µM],9%,-1.4%,-39,2,-9%
O=C(CSc1ncccn1)NNC(=O)c1ccccc1,.,9%,.,-3.0%,.,0,3%
O=C(Nc1ccc(Cl)cc1F)c1ccc(-n2cncn2)cc1,.,2%,.,-18%,-16,1,9%
O=C(Oc1ccc(C(=S)N2CCOCC2)cc1)c1ccccc1F,-2.5,-2%,25µM*,-0.7%,-10,.,-4%
Cc1ccc(S(=O)(=O)NC2CCCCCC2)cc1,.,-13%,.,-2.3%,.,19,-14%
Cc1ccc(-c2nn3c(C)nnc3s2)cc1NC(=O)c1ccco1,1.3,21%,6%,-0.9%,2,10,5%
CSc1ccc(/C=C/C(=O)OCC(=O)N2CCCCCC2)cc1,.,-4%[15.4 µM],.,0.1%,.,-2,-3%
COc1ccc(CNS(=O)(=O)c2ccc(-n3cnnn3)c(C)c2)cc1,.,-32%,12%,.,-20,-4,2%
C=CCOn1c(=O)c(-c2ccccc2)[n+]([O-])c2ccccc21,2.5,-10%[15.4 µM],-1%,.,8,-3,6%
Cc1ccc(NC(=O)C2CCN(C(=O)c3ccccc3C)CC2)cc1,-0.3,42%[15.4 µM],2%,.,2,-5,3%
Nc1cccc2c1C(=O)N(C(=O)c1ccc(S(=O)(=O)N3CCCCCC3)cc1)C2=O,-30,-6%,-13%,16%,7,5,-2%
CCc1n[nH]c(=O)n1Cn1c(CC)n[nH]c1=O,4.7,-17%,4%,-0.2%,0,-2,-2%
CC(C)(C)N=C1NN=C(c2cc3ccccc3o2)CS1,-2.4,20%,-20%,-2.6%,0,-1,-13%
Cc1ccc(NC(=S)NC(=O)C2CCCC2)cc1C,.,-10%,-6%,-0.2%,-19,-11,-4%
O=C(NC1C(=O)NNC1c1ccccc1)c1ccc(F)cc1 (stereo not drawn),6.9,-25%,4%,-1.2%,-19,24,4%
O=C(N1CCCC1)C(F)(F)Oc1ccc(F)cc1,2.7,1%,7%,.,-42,1,1%
CCOc1ccc(C(Nc2ccc(C)cc2)P2(=O)OCCCO2)cc1 (stereo not drawn),-7.1,25%,2%,-1.0%,1,-2,-6%
CCOC(=O)c1c(C)[nH]c(C(=O)COC(=O)C2=NNC(=O)CC2)c1C,0.9,-13%,17%,.,?,-2,4%
COc1ccc2c(c1OC)c(=O)n1c3ccc(OC(C)C(=O)NCCCN4CCOCC4)cc3c3ccnc2c31 (stereo not drawn),-0.2,.,24%,4.7%,-3,.,-2%
Cc1ccc(OCC(=O)NNC(=S)NC(=O)c2ccc(Br)o2)c(C)c1,0.6,2%,12%,0.6%,24,-10,8%
COc1nc(OCC#N)nc(N2CCCCC2)n1,2.9,15%[15.4 µM],9%,-1.4%,-16,-13,-1%
Cc1cc(C)nc(NC(=O)c2ccc(Cl)c([N+](=O)[O-])c2)n1,4.6,-4%[15.4 µM],5%,.,-10,-4,-16%
Cc1oc2c(O)c(O)ccc2c(=O)c1-c1ccccc1,-1.2,-2%,50µM*,-2.8%,10,18,-8%
Cc1ccc(-n2c(=O)cc(N3CCN(Cc4ccccc4)CC3)[nH]c2=O)cc1,-0.7,-12%,7%,-0.1%,-11,96,1%
O=C(Nc1cccc(S(=O)(=O)c2cccc(NC(=O)C3CC3)c2)c1)C1CC1,0.5,-21%,13%,-0.9%,?,2,?
CC(C)CC1(C)NC(=O)N(CC(=O)Nc2ccccc2Br)C1=O (stereo not drawn),.,-33%,.,.,.,-19,1%
O=C(NC(=S)Nc1cccc(Cl)c1N1CCCCC1)c1cccs1,0.7,-18%,23%,-1.8%,-6,-3,11%
COC(=O)c1cc(C(=O)OCC(=O)N2CCCCC2)cc([N+](=O)[O-])c1,.,?,.,.,.,28,2%
Cc1ccc(Cl)c(NC(=O)COC(=O)c2ccccc2C(=O)c2ccc(Cl)c([N+](=O)[O-])c2)c1Cl,4.8,4%,-51%,0.8%,4,-12,-11%
Cc1ccccc1S(=O)(=O)N1C[C@H]2CON(C)[C@H]2C[C@H]1c1cccc(N2CCOCC2)c1,.,.,.,0.4%,.,14,2%
O=C(c1ccc(Cl)cc1)c1cnc(Nc2ccccc2)s1,3.0,-4%,-3%,0.7%,1,-4,6%
CCOc1ccccc1-c1nc(-c2cc3ccc(C)cc3[nH]c2=O)no1,3.1,13%,5%,?,-6,-24,-2%
CCOc1cc(/C=N/NC(=O)CCn2nnc3ccccc32)ccc1O,0.5,28%,2%,.,-7,13,-8%
Fc1ccc(CSc2ccc3nnc(-c4cccs4)n3n2)cc1,-1.1,12%,19%,-0.6%,-1,59,32µM*
Cc1ccc(C(=O)NCC(=O)OCC(=O)Nc2ccc3[nH]c(=O)[nH]c3c2)cc1,.,19%[15.4 µM],.,.,-3,0,1%
CCCCCCC(O)(CCN1CCCCC1)c1ccccc1 (stereo not drawn),0.0,3%,10%,.,0,-15,10%
CCOc1ccc(CN2CCN(Cc3[nH]c4ccccc4c3C)CC2CCO)cc1 (stereo not drawn),-5.1,?,16%,-7.6%,7,-5,3%
S=c1nc(NCc2ccc3c(c2)OCO3)c2ccccc2[nH]1,-7.3,-61%[inhibitor],-8%,-0.6%,3,.,?
Cc1nc(=O)c(-c2ccccc2)c(C)n1-c1ccccc1C(=O)O,0.0,-46%[inhibitor],11%,-0.3%,17,-3,6%
COc1ccc(S(=O)(=O)N[C@@H](Cc2ccccc2)C(=O)N2CC[C@@]3(O)CCCC[C@H]3C2)cc1,1.8,?,15%,-0.1%,2,-26,-9%
Cc1ccc(-n2ncc3c2CC(C)(C)CC3NC(=O)CCc2cnn(C)c2)cc1 (stereo not drawn),.,-1%[15.4 µM],8%,1.2%,8,0,-13%
COc1ccc(NS(=O)(=O)c2cc(N)ccc2N2CCOCC2)cc1,2.3,-2%,-18%,.,5,31,6%
COc1ccccc1CNC(=O)Cn1cccc1,2.5,6%,0%,1.6%,10,-4,12%
CN(CC(=O)NCc1ccccc1Cl)S(=O)(=O)c1ccc2c(c1)n(C)c(=O)c(=O)n2C,.,-1%,13%,-17%,6,-8,5%
Cn1c(Cc2ccccc2)nnc1SCC(=O)Nc1ccccc1,5.4,32%[15.4 µM],12%,-6.9%,2,-29,-26%
CCOc1ccc(N2CC(C(=O)Nc3nnc(Cc4ccc(OC)c(OC)c4)s3)CC2=O)cc1 (stereo not drawn),0.2,12%[15.4 µM],-8%,.,-3,-2,-8%
